# Screening data: PubChem BioAssay, National Center for Advancing Translational Sciences (NCATS)
# Six1-Eya2 blk – inhibitors of human Six1/Eya2 interaction; AlphaScreen GST-Six1/His-Eya2 binding, biochemical; hits give low values; control for the full effect not named in the record; activity change, % (no concentration beside the values); hit rate 0.56% among 360,000; AID 651725; in the data active = activity change below about -65%; inconclusive = about -30% to -65%; inactive = above about -30%; note: % is set by controls: 0 for no effect and ±100 for the full control effect; compound concentration not given in the record
#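 GST-Six1 + His-Eya2 (5X stock: 250/500 nM); Tris pH 8.0, 300 mM NaCl, 0.05% BSA, 0.02% Tween 20; GSH donor/Ni acceptor beads; 1 h 37 °C dark; AlphaScreen readout.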
# TRPV1 PAM – potentiators of human vanilloid receptor 1 (TRPV1); Q8NER1; TRPV1-expressing cells, Fluo-8 calcium influx, capsaicin EC20 potentiation; host cell line not named in the record; control for the full effect not named in the record; potentiation, % at 8.33 µM; hit rate 0.02% among 320,000; AID 540277; active means potentiation above 80%; inconclusive means 30% to 80%; inactive means below 30%; note: 0% is about no effect
#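 Cells expressing TRPV1 were dye-loaded with Fluo-8 and read kinetically: 10 s baseline, 3 min after compound (agonist portion), then 2 min after EC20 capsaicin (allosteric enhancer portion). Calcium-bound dye fluorescence at 480/520 nm.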
# CtBP-E1A inh – blocks the CtBP interaction with E1A; AlphaScreen GST-E1A/His-CtBP binding, 1536-well; hits give low values; control for the full effect not named in the record; activity change, % (test concentration not listed); hit rate 0.49% among 340,000; AID 651724; in the data active means activity change below about -65%; inconclusive means about -30% to -65%; inactive means above about -30%; note: % is set by controls: 0 for no effect and ±100 for the full control effect; compound concentration not given in the record
#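 Homogeneous bead-based format: GST-tagged E1A captured on glutathione donor beads, His-tagged CtBP on nickel acceptor beads; compounds precede bead addition by 2 h at 37 °C.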
# D2 PAM – potentiates the human D2 dopamine receptor allosterically; DiscoveRx D2 beta-arrestin cells, luminescence, 90 min; 100% = 57 uM dopamine signal; potentiation, % (test concentration not listed); hit rate 0.23% among 360,000; active = potentiation of 50% or more; inconclusive = 30% to 50%; inactive = 30% or less;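 note: compound concentration not given in the record; tested on top of an EC20 dose of dopamine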
# Target sequence (P14416 whole entry, looked up): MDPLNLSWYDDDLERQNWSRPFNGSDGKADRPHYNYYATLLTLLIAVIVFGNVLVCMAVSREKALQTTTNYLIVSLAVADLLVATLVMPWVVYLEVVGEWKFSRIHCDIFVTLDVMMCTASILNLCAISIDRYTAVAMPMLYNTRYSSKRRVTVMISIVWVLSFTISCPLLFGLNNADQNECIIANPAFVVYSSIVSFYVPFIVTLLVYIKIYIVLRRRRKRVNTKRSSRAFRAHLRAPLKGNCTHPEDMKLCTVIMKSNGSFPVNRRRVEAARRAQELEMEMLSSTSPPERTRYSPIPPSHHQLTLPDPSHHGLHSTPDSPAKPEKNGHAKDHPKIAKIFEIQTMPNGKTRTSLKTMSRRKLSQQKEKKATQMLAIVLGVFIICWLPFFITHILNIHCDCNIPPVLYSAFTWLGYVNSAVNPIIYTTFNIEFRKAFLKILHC
#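 PathHunter beta-arrestin assay in DiscoveRx D2 cells. Compounds were added with an EC20 of dopamine (50 nM final) for 90 min at 37 deg C. Luminescence was read 1 h after detection reagent, with 57 uM dopamine as the EC100 control.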
# TRPML1 agonist – activates the human TRPML1 channel. Q9GZU1. TRPML1-expressing cells, Ca2+ dye fluorescence, FDSS; host cell line not named in the record; reference of the full effect not given here. activation, % (no concentration beside the values). hit rate 0.12% among 410,000; in the data active = activation above about 50%; inconclusive = about 30% to 50%; inactive = below about 30%; note: 0% is about no effect; the text of the record puts the active cut at 80%
# Target sequence (Q9GZU1 whole entry, looked up): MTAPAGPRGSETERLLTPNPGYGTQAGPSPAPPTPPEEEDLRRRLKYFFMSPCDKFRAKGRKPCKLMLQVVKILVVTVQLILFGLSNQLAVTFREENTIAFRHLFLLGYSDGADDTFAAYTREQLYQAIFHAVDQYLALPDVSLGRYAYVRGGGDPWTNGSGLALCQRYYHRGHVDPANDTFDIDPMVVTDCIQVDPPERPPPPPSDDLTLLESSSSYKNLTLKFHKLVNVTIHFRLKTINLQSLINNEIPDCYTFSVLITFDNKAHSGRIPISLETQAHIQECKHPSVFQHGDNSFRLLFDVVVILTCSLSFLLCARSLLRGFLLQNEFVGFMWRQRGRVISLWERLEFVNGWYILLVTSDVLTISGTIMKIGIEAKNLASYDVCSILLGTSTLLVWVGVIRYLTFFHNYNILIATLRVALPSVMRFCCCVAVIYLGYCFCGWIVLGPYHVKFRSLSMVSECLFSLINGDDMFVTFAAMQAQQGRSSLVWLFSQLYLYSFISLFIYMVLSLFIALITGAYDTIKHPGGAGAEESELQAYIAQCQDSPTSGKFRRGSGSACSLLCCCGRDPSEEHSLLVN
#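 TRPML1-DL cells, Tet-induced overnight (~16 h, 37 degrees C), loaded 45-90 min at room temperature with Ca8 no-wash calcium dye plus quencher. FDSS fluorescence: 10 s baseline, compound pin-transfer, 110 s agonist read, then EC80 54-4 (4uM final) and 110 s antagonist read.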
# TRPML1 inh – human mucolipin-1 channel inhibition | Q9GZU1 | TRPML1-inducible cells, Ca2+ dye fluorescence, FDSS; hits give low values; inhibition of EC80 agonist-evoked calcium signal | activity change, negative = inhibition, % (concentration not given with the values) | hit rate 0.02% among 390,000 | AID 624415; in the data active means activity change below about -50%; inconclusive means about -30% to -50%; inactive means above about -30%;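 note: stimulus is agonist 54-4 at its EC80 concentration; % is set by controls: 0 for no effect and ±100 for the full control effect; compound concentration not given in the record; the text of the record puts the active cut at -80%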
#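 Calcium fluorescence in TRPML1-DL cells induced overnight with Tet: a 110 s read after compound pin addition, then a 110 s antagonist read after challenge with 54-4 at 4 uM final (EC80).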
# Active calls of the source: *; u = inconclusive; x = not tested or not shown; & = joins results of further samples.
# Results follow in this order: TRPML1 agonist, Six1-Eya2 blk, TRPV1 PAM, D2 PAM, TRPML1 inh, CtBP-E1A inh
- CN(Cc1nccn1C)C(=O)CCc1nnc(CCC2CCCCC2)o1
    -0.1, -4.3, 0.9, -8.2, 30.3, 10.6
- C=CCc1cccc(/C=N/NC(=O)C(=O)Nc2ccc(C)cc2)c1O
    0.3, -12.1, 1.6, -3.0, -14.0, x
- O=C(Cc1ncc(C(F)(F)F)cc1Cl)N1CCN(c2cccc(Cl)c2)CC1
    -0.3, 3.8, x, -9.8, -21.6, 4.9
- CCOc1ccc(C(C)=O)cc1COc1ccc(-c2nnco2)cc1
    1.3, 3.7, 4.1, -5.5, -22.3, -11.2
- Cc1ccc(-c2ccccc2)n1-c1cccc(C(=O)O)c1
    -0.3, 0.8, x, -9.1, 39.0, -0.2
- Cc1ccc(F)cc1NCC(=O)Nc1ccc(Br)cc1
    -0.1, -6.4, -3.8, -22.3, 6.9, 1.4
- CCOC(=O)CCN(c1ccccc1)S(=O)(=O)c1ccc(-c2ccc(=O)[nH]n2)s1
    -0.3, -6.9, -4.8, -8.1, -5.0, -9.7
- Cc1cc(C)n(-c2n[nH]c(=O)c3ccccc23)n1
    0.3, 0.5, 2.3, -0.2, -12.7, 7.5
- N#Cc1ccc(Oc2ccc(S(=O)(=O)N3CCOCC3)cn2)cc1
    -0.1, 1.2, 5.7, -20.5, -12.3, 6.2
- O=C(CNC(=O)c1ccco1)OCc1ccccc1Cl
    -0.4, 5.7, x, -2.2, 4.3, 6.1
- CC(NC(=O)CN1CCN(CC(=O)Nc2ccccc2Cl)CC1)c1ccc(Br)cc1 (stereo not drawn)
    0.1, -0.4, 3.3, -0.6, -13.4, 6.1
- CC(Sc1ccccc1)C(=O)Nc1ccc(S(=O)(=O)N2CCOCC2)cc1 (stereo not drawn)
    0.4, -4.4, -14.7, -2.3, 0.0, -1.2
- C=CC[C@]12CCc3ccccc3C1N(c1ccc(C(=O)OCC)cc1)C2=O (stereo partly drawn)
    -0.6, 1.6, -31.8, -5.6, -0.7, 2.2
- CCN(CC(=O)NCc1cccs1)C(=O)c1cccc(S(=O)(=O)Nc2ccc(C)cc2)c1
    0.5, -17.5, -28.2, -4.0, 9.8, -3.3
- Cc1cc(NC(=O)CSc2nncc(=O)n2N)no1
    -0.4, -6.5, -1.8, -2.0, 0.8, -1.3
- CCOC(=O)C1(CC2CCCCO2)CCN(Cc2nccn2-c2ccc(OC)cc2)CC1 (stereo not drawn)
    -0.9, 6.2, -4.8, -9.3, -5.6, -1.8
- CC1CCCCC1n1c(-c2cccnc2)n[nH]c1=S (stereo not drawn)
    0.5, 0.6, 11.4, -13.9, 26.5, -10.4
- COc1ccccc1CNC(=O)c1nn(C)c2c1CS(=O)(=O)c1ccccc1-2
    -1.1, -0.9, 0.9, -5.5, -8.2, 8.1
- N#CC1=C(N)OC2=C(C(=O)CCC2)C1c1ccc2c(c1)OCO2 (stereo not drawn)
    -0.7, 0.5, -8.4, 15.5, 16.4, x
- O=C(CS(=O)(=O)c1cccc(Cl)c1)Nc1ccccc1Cl
    0.0, -1.0, -5.6, -10.0, -8.0, 6.3
- CCCCCCCCNC(=O)/C(C#N)=C/c1ccccc1[N+](=O)[O-]
    -0.3, 3.2, u, -1.9, -3.1, -2.9
- CCN1/C(=C/C(C)=O)Sc2ccc(OC)cc21
    -0.8&2.1&-1.0, -3.2, -9.9, -7.4, 18.6, -1.0
- CS(=O)(=O)N1CCN=C1SCc1ccc(Br)cc1
    0.4, 6.4, -21.5, -1.2, -12.3, x
- COc1ccc(OC)c(-c2csc(NC(=O)CSc3ccc([N+](=O)[O-])cc3)n2)c1
    2.3, -19.6, -3.1, 1.8, -5.7, u
- CCCOc1ccc(C2NC(=S)NC(C)=C2C(=O)c2ccccc2)cc1OC (stereo not drawn)
    6.1, -25.5, -2.6, -4.6, -0.7, -5.3
- O=[N+]([O-])c1ccc(-c2cnc3ccccc3n2)cc1
    0.6, -20.0, -17.8, 0.4, 12.6, -21.4
- CCS(=O)(=O)N1Cc2ccccc2CC1C(=O)N(C)Cc1ccc(OC)c(F)c1 (stereo not drawn)
    -0.5, 1.9, 6.7, -4.9, 16.6, -4.5
- COc1ccc(S(=O)(=O)N2CCOC23CCN(S(=O)(=O)c2ccc(F)cc2C)CC3)cc1
    0.1, 0.2, -8.1, 2.5, 79.1, 1.9
- COc1cccc(-c2nnc(NC(=O)c3cccc(F)c3)o2)c1
    0.5, -9.9, 10.4, -8.9, 20.1, -5.6
- O=C(COc1ccc2ccc(=O)oc2c1)NC(Cc1ccc(Cl)cc1)C(=O)O (stereo not drawn)
    x, -10.8, -8.7, -38.7, x, -16.0
- COc1ccc(OC)c(NC(=O)c2ccccc2NC(=O)c2ccco2)c1
    -0.3, -25.2, -5.6, -1.8, -0.3, -26.5
- C=CCNc1nc(Nc2cc(Cl)ccc2OC)nc(OC)n1
    0.2, 3.0, 0.5, -2.8, 23.4, -1.3
- COc1ccccc1C(CNC(=O)CNC(=O)c1ccccc1Cl)N1CCCC1 (stereo not drawn)
    -0.3, 2.8, -0.2, -3.8, 20.3, x
- CCOC(=O)C1CCN(C(=O)Cc2ccccc2OC)CC1
    0.5, 3.8, 5.8, -9.5, 18.9, 4.0
- CCOC(=O)c1ccc(S(=O)(=O)N2CCN(C(=O)CSc3nc4ccccc4o3)CC2)cc1
    6.8, 14.9, -0.5, 4.7, -4.0, 0.0
- CC(C)CCNC(=O)c1cccnc1Sc1ccccc1
    0.0, 7.0, -7.4, -21.6, -16.6, 10.9
- O=C(Nc1ccc(Cl)cc1Cl)Nn1cnnc1
    0.4, 7.5, 0.9, -14.6, 32.2, 6.3
- Cc1ccccc1-n1cc(CNCc2c(C(=O)N(C)C)nc3ccc(Cl)cn23)cn1
    -0.9, 3.9, 9.3, -25.3, 8.3, x
- COc1ccc(S(=O)(=O)c2c(O)c3ccc(C(=O)Nc4ccccc4F)cc3[nH]c2=O)cc1
    -0.2, u, 14.6, -11.9, 12.5, -24.3
- CC1=CC(C)(C)N(C(=O)CSc2nccn2C)c2cc(C)ccc21
    1.5, -0.9, -26.0, -13.9, -13.8, -8.0
- CC1(C(=O)NS(=O)(=O)c2cccs2)CCN1C(=O)Cc1ccc(Cl)cc1Cl (stereo not drawn)
    -0.4, 0.9, x, 2.2, x, 1.8
- Cc1c(C(=O)Nc2ccc(S(=O)(=O)N(C)C3CCN(C)CC3)cc2)oc2c(Cl)cccc12
    -0.3, -10.1, -1.4, -34.8, -1.7, -1.7
- COc1ccc(OC)c(/C=N/NC(=O)c2ccc(N(C)S(=O)(=O)c3ccccc3)cc2)c1
    1.3, -1.8, u, -8.2, 1.2, x
- CC(=O)Nc1ccc(/C=C/c2ccc3c([N+](=O)[O-])cccc3n2)cc1
    -0.2, -14.2, 3.7, -0.2, -10.6, 8.2
- O=c1c2ccccc2nnn1-c1ccccc1[N+](=O)[O-]
    -0.7, -2.7, x, -7.4, 1.4, 1.7
- COCCNS(=O)(=O)c1ccc2c(c1)C(=NO)c1cc(S(=O)(=O)NCCOC)ccc1-2
    0.9, -3.7, -0.2, -10.8, 42.8, -8.9
- COc1ccc(-c2ccc(CCC(=O)O)n2-c2ccc(O)cc2)cc1
    -0.9, -1.6, 6.0, -3.4, -9.5, -1.2
- CN1CCc2c(sc3nc(SCC(=O)N4CCOCC4)n(-c4ccc(Cl)cc4)c(=O)c23)C1
    0.1, -13.7, -9.2, -4.7, 37.4, -79.8*
- COc1cccc(-c2nnc(SCC(=O)OC(C)C)n2N)c1
    1.5, 6.7, 25.5, 10.2, 9.7, 7.5
- Cc1nc(SCC(=O)N2CCc3ccccc3C2)c2c(C)c(C)sc2n1
    0.5, -0.9, -1.6, -3.6, -4.9, 3.3

# Part of the list above, reformatted:
O=c1c2ccccc2nnn1-c1ccccc1[N+](=O)[O-]
  TRPML1 agonist: -0.7
  Six1-Eya2 blk: -2.7
  TRPV1 PAM: x
  D2 PAM: -7.4
  TRPML1 inh: 1.4
  CtBP-E1A inh: 1.7
COCCNS(=O)(=O)c1ccc2c(c1)C(=NO)c1cc(S(=O)(=O)NCCOC)ccc1-2
  TRPML1 agonist: 0.9
  Six1-Eya2 blk: -3.7
  TRPV1 PAM: -0.2
  D2 PAM: -10.8
  TRPML1 inh: 42.8
  CtBP-E1A inh: -8.9

# (next part)
# Results follow in this order: TRPML1 agonist, Six1-Eya2 blk, TRPV1 PAM, D2 PAM, TRPML1 inh, CtBP-E1A inh
- Cc1c(C(=O)N2CCN(c3ccc(F)cc3)CC2)sc2ncnc(N3CCN(c4ccccn4)CC3)c12
    0.6, -12.1, 27.7, 8.3, -4.7, -14.3
- COc1ccccc1C1OC2=C(Nc3ccc([N+](=O)[O-])cc3N2)C1=O (stereo not drawn)
    0.1, 2.9, u, -0.7, -4.5, x
- CCOc1ccc(NC(=O)CSc2nnc(-c3ccccc3)n2N)cc1
    -0.8, 1.9, -2.2, 12.1, -6.3, 4.1
- CCN(CC)CCSc1nc(O)c(Cc2ccccc2)c(=O)n1-c1ccccc1
    -0.5, -0.6, -0.1, -18.0, -5.7, 1.9
- CCc1ccc(N(CC(=O)NC2CCCC2)S(=O)(=O)c2c(C)noc2C)cc1
    -0.6, 8.5, -5.5, -8.8, -7.4, 8.7
- S=C(NC1CCCCC1)NN1CCOCC1
    1.7, 1.8, 6.7, -9.6, 0.7, 8.4
- CN(C)c1ccc(CNC(=O)CC[C@H]2O[C@@H](n3cnc4c(NC(=O)c5ccccc5)ncnc43)[C@H](O)[C@@H]2O)cc1
    0.1, -16.4, x, -4.2, -4.7, -14.1
- Cc1ccc(Nc2c(-c3ccc(N4CCOCC4)cc3)nc3ncccn23)cc1
    -0.4&-0.1, 4.2, u, -3.0, 5.4&2.3, -24.0
- CC1CCCCN1S(=O)(=O)c1ccc2c(c1)CCN2C(=O)C1CCC1 (stereo not drawn)
    -0.4, 1.7, -12.0, 0.1, -1.8, -2.2
- CCc1nnc(NC(=O)CSc2nc3c(c(=O)n2-c2ccccc2OC)SCC3)s1
    5.0, -9.4, -3.5, 3.6, 18.5, -2.5
- O=C(Cc1ccc(F)cc1)NC1CCCC1
    0.5, 2.5, -12.9, -12.6, 13.2, -5.8
- COC(=O)CNC(=O)c1cn(-c2ccc(C)c(C)c2)c(=O)c2ccccc12
    -0.9, 0.2, 17.3, 1.0, 5.4, x
- Cc1cccc2cc(CN(CCN(C)C)C(=S)NCc3ccco3)c(=O)[nH]c12
    -0.3, -17.0, 6.0, -24.6, -1.5, -5.9
- CC(=O)C1=C(O)C(=O)N(c2ccc(S(N)(=O)=O)cc2)C1c1ccc([N+](=O)[O-])cc1 (stereo not drawn)
    -0.4, -0.9, 8.8, -20.4, -11.2, 2.9
- O=C(/C=C/c1c(F)cccc1Cl)Nc1ccc(S(=O)(=O)Nc2ncccn2)cc1
    0.2, 12.6, -1.2, -17.7, 49.6, -2.1
- O=S(=O)(NCc1cccnc1)c1cccc2cccnc12
    0.4, 4.6, 6.4, -4.1, -15.5, 5.2
- COCCCNC(=S)NNC(=O)c1ccc(C(C)(C)C)cc1
    -0.3, 2.6, x, -15.5, -15.4, x
- O=C(CSc1nnc(CNC(=O)c2ccc(F)cc2)o1)c1ccccc1
    -0.2, 0.0, -10.8, -60.3, -6.9, 2.9
- CCOC(=O)C1(CCOc2ccccc2)CCN(Cc2cccc(OC)c2)CC1
    0.2, 1.8, x, -10.3, -15.7, -11.0
